Yeast UUG start: yeast start codon fidelity modulation | S. cerevisiae UUG-firefly luciferase reporter, luminescence/redox ratio | activity score, % at 18.7 µM | hit rate 0.13% among 350,000;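 active = replicate mean at a twofold rise or more, about +100% in these data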;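 note: firefly luciferase made from a UUG start codon reports start codon fidelity; reporter light over untreated wells divided by growth signal over untreated wells; some hits fall short of that in this replicate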
MT1-MMP act inh: blocks activation of human MT1-MMP; P50281; HT1080 RFP-PRO-GFP cells, GFP/RFP ratio fluorescence, overnight; percent of plate control window, DMSO zero; GFP/RFP ratio change, % at 20 µM; hit rate 0.061% among 360,000; AID 651647;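 active = GFP/RFP ratio change of at least 30% with cell ATP level not reduced by more than half and red fluorescence within 50% of control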; note: strong numbers were not always called active
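Assay system: RFP-PRO-GFP reporter HT1080 cells; read-out basis: GFP/RFP fluorescence ratio; benchmarks: DMSO wells and RFP-L50D-GFP cells; doses: 20 µM single dose, 1% DMSO; schedule: overnight cell settling, then overnight compound exposure, 37 °C, 5% CO2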
MT1-MMP act inh RFP: second read-out of MT1-MMP act inh, no call of its own (marks repeat the call); RFP signal change, %; measured here: RFP expression control read;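 0 = vehicle wells; hits needed this value within 50% of zero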
Active calls of the source: *; & = joins results of further samples. The list is partial. The share of hits here may be higher or lower than overall.

No.	Yeast UUG start	MT1-MMP act inh	MT1-MMP act inh RFP	structure
1	-7.3	0.7	1.4	Cc1noc(C)c1C(=O)OCC(=O)Nc1cccc(F)c1
2	-45.9	0.3	0.5	CCOC1=C2CN(S(=O)(=O)c3ccc(C)cc3)[C@H](c3cccc(Cl)c3)C[C@@H]2N(S(=O)(=O)c2ccccc2[N+](=O)[O-])[C@H](c2ccccc2)C1
3	-11.6	-1.8	5.2	COCCn1c(N)c(N(Cc2ccccc2)C(=O)COc2ccccc2F)c(=O)[nH]c1=O
4	-16.4	1.6	1.9	CC(=O)Nc1ccc(NC(=O)C2CCN(S(=O)(=O)c3ccc4c(c3)OCCO4)CC2)cc1
5	-8.8	4.4	-11.3	CON(C)S(=O)(=O)c1cccc(C(=O)Nc2ccc(S(=O)(=O)NC3=NCCCCC3)cc2)c1
6	-20.3	-0.6	-3.6	Cc1ccccc1-c1nnc(SC(C)C(=O)NC2CCCC2)o1 (configuration not stated)
7	-14.2	1.7	-3.0	CCc1ccc(NC(=O)C(C)Sc2ccc(S(=O)(=O)N3CCN(C)CC3)cn2)cc1 (configuration not stated)
8	-8.1	2.3	2.0	CC(=O)Nc1ccc(NC(=O)CCN2C(=O)C3CC=CCC3C2=O)cc1 (configuration not stated)
9	-13.0	7.3	3.7	O=C(Nc1ccc(C(F)(F)F)cc1)C1=NN(C2CCS(=O)(=O)C2)C(=O)CC1 (configuration not stated)
10	-24.0	1.0	1.4	ON=C1c2ccccc2-c2ccc(Br)cc21
11	-15.5	-3.8	-1.8	CCOC(=O)C1=C(COC(=O)c2cc(S(=O)(=O)N3CCOCC3)ccc2F)NC(=O)NC1C (configuration not stated)
12	-19.1	1.0	-1.0	CCCS(=O)(=O)NC(=O)C1(C)CCN(C(=O)c2ccccc2C(F)(F)F)C1 (configuration not stated)
13	-2.2	5.6	-3.6	O=C(COc1ccccc1Br)NCCC1=CCCCC1
14	-8.5	2.2	3.7	O=C(COC(=O)c1ccc(Cl)nc1)NC1CCCCCC1
15	3.8	-0.3	-10.4	O=C(NCc1c(Cl)cccc1Cl)c1[nH]c(C(F)(F)F)nc1-c1ccccc1

Results in Yeast UUG start and MT1-MMP act inh (6 entries from above):
item	SMILES	Yeast UUG start	MT1-MMP act inh
3	COCCn1c(N)c(N(Cc2ccccc2)C(=O)COc2ccccc2F)c(=O)[nH]c1=O	-11.6	-1.8
4	CC(=O)Nc1ccc(NC(=O)C2CCN(S(=O)(=O)c3ccc4c(c3)OCCO4)CC2)cc1	-16.4	1.6
5	CON(C)S(=O)(=O)c1cccc(C(=O)Nc2ccc(S(=O)(=O)NC3=NCCCCC3)cc2)c1	-8.8	4.4
6	Cc1ccccc1-c1nnc(SC(C)C(=O)NC2CCCC2)o1 (configuration not stated)	-20.3	-0.6
7	CCc1ccc(NC(=O)C(C)Sc2ccc(S(=O)(=O)N3CCN(C)CC3)cn2)cc1 (configuration not stated)	-14.2	1.7
8	CC(=O)Nc1ccc(NC(=O)CCN2C(=O)C3CC=CCC3C2=O)cc1 (configuration not stated)	-8.1	2.3

The list goes on:
No.	Yeast UUG start	MT1-MMP act inh	MT1-MMP act inh RFP	structure
16	-13.5	-2.8	1.6	COc1ccc(C(CNC(=O)C2COc3ccccc3O2)N2CCCC2)cc1 (configuration not stated)
17	-12.0	-1.4	-5.4	CC1CN(S(=O)(=O)c2ccc(C(=O)N3c4ccccc4CC3C)cc2)CC(C)O1 (configuration not stated)
18	-23.4	-8.1	-3.6	Nc1c(N(CCC2=CCCCC2)C(=O)COc2ccc([N+](=O)[O-])cc2)c(=O)[nH]c(=O)n1Cc1ccccc1
19	-2.5	1.5	2.0	CCc1noc(C)c1C(=O)NNC(=O)COc1ccccc1C
20	-4.7	-1.1	-2.3	Cc1ccccc1OCCOC(=O)c1ccc(S(=O)(=O)N2CCCC2)cc1
21	-2.8	-1.2	3.4	[O-][n+]1ccc(CC(O)(C(F)(F)F)C(F)(F)F)cc1
22	-6.9	-3.5	-2.2	Cc1cccc(OCC(=O)N2CCc3ccccc3C2)c1C
23	-2.9	2.2	-2.4	O=S1(=O)CCN(C2CC2)CC1
24	-13.1	0.4	-0.2	COc1ccccc1NS(=O)(=O)c1ccc(/C=C/C(=O)N2CCN(C(C)=O)CC2)cc1
25	-15.9	-0.3	-0.5	COc1ccc(C)cc1NC(=O)c1cc(C2CC2)nc2c1c(C)nn2C1CCS(=O)(=O)C1 (configuration not stated)
26	-7.6	0.2	1.5	O=C(NCC(=O)N1CCCCC1)c1sc2ccccc2c1Cl
27	4.8	-12.1	2.1	CCOC(=O)c1cc(OC)c2cccc(CN3CCC(C)(C(=O)NCCOC)C3)c2c1 (configuration not stated)
28	41.2	5.0	5.0	COc1cc(-c2cc(NC=O)c3ncc(-c4ccc(C(C)=O)cc4)n3c2)ccc1O
29	-15.8	3.5	2.6	CC1(C)C[C@H]2C3=CCC4[C@@]5(C)CC[C@H](O)[C@](C)(CO)C5CC[C@@]4(C)[C@]3(C)CC[C@@]2(C)[C@H](O)[C@@H]1O (some centres not stated)
30	-3.7	-0.1	-1.4	O=C(CN1CCN(C(=O)c2cncn2-c2ccccc2)CC1)Nc1ccccc1Cl

An excerpt of these results, with each value named:
6: Cc1ccccc1-c1nnc(SC(C)C(=O)NC2CCCC2)o1 (configuration not stated)
  Yeast UUG start: -20.3
  MT1-MMP act inh: -0.6
  MT1-MMP act inh RFP: -3.6

7: CCc1ccc(NC(=O)C(C)Sc2ccc(S(=O)(=O)N3CCN(C)CC3)cn2)cc1 (configuration not stated)
  Yeast UUG start: -14.2
  MT1-MMP act inh: 1.7
  MT1-MMP act inh RFP: -3.0

Other structures
No.	Yeast UUG start	MT1-MMP act inh	MT1-MMP act inh RFP	structure
31	-5.3	-1.2	-6.0	O=C(c1cccc(S(=O)(=O)N2CCc3ccccc32)c1)N1CCc2ccccc2C1
32	-13.1	-4.1	-1.0	Cc1cc(C)cc(OCC(=O)N(Cc2ccco2)c2c(N)n(Cc3ccccc3)c(=O)[nH]c2=O)c1
33	-11.6	-0.5	-0.1	O=C(NCc1cccc(Cl)c1)c1cccc(S(=O)(=O)N2CCCC2)c1
34	-9.0	2.9	2.3	Cc1cnc(C(=O)OCC(=O)Nc2ccccc2-c2ccccc2)cn1
35	-28.9	45.6	58.4	Cc1ccccc1C1CC(=O)Oc2cc(O)ccc21 (configuration not stated)
36	-5.5	0.2	-1.9	COCCn1c(SCC(=O)NCC(c2ccccc2)N(C)C)nc2sc3c(c2c1=O)CCC3 (configuration not stated)
37	-6.4	-2.9	-12.5	CCCNC(=O)C1(C)CCN(Cc2ccc3ccccc3c2Br)C1 (configuration not stated)
38	-1.3	-2.5	-10.4	CCOc1ccc(S(=O)(=O)N2CCCCC2)cc1NC(=O)C1COc2ccccc2O1 (configuration not stated)
39	-8.1	-7.2	-15.0	Cc1onc(-c2ccccc2)c1C(=O)OCC(=O)Nc1ccc(C#N)cc1
40	-20.9	6.4	9.6	C#CCNCCS(=O)(=O)N(Cc1ccc(Br)cc1)[C@@H](C)C(=O)O
41	-21.5	-4.1	-1.7	COc1ccc(NC(=O)C2(C)CCN2C)cc1OC (configuration not stated)
42	-14.4	-1.1	-3.2	CCOC(=O)C1=CCN(S(=O)(=O)c2cccc(Cl)c2)C1c1ccc(C)cc1 (configuration not stated)
43	-32.8	-0.5	1.6	COc1ccc(C(=O)N2CCNC(=O)C2)cc1S(=O)(=O)Nc1ccc(Br)cc1
44	-0.6	2.7	4.7	CCCC1NC(=O)c2cccnc2-n2c1nc1cc(F)c(F)cc1c2=O (configuration not stated)
45	-3.2	1.2	-8.3	O=C(COc1ccc(F)cc1Cl)Nc1cccc(S(=O)(=O)N2CCCC2)c1

Full records, looked up by structure. Order of values: Yeast UUG start	MT1-MMP act inh	MT1-MMP act inh RFP
CCCC1NC(=O)c2cccnc2-n2c1nc1cc(F)c(F)cc1c2=O (configuration not stated) is listed as -0.6	2.7	4.7
Cc1cc(C)cc(OCC(=O)N(Cc2ccco2)c2c(N)n(Cc3ccccc3)c(=O)[nH]c2=O)c1 is listed as -13.1	-4.1	-1.0
C#CCNCCS(=O)(=O)N(Cc1ccc(Br)cc1)[C@@H](C)C(=O)O is listed as -20.9	6.4	9.6
Cc1ccccc1C1CC(=O)Oc2cc(O)ccc21 (configuration not stated) is listed as -28.9	45.6	58.4
O=C(COc1ccc(F)cc1Cl)Nc1cccc(S(=O)(=O)N2CCCC2)c1 is listed as -3.2	1.2	-8.3

Continued.
No.	Yeast UUG start	MT1-MMP act inh	MT1-MMP act inh RFP	structure
46	-1.0	-3.4	-0.4	CCC(C(=O)OCC(=O)c1ccc(OC)cc1OC)c1ccccc1 (configuration not stated)
47	-3.6	0.2	1.6	COc1ccc(C(CNC(=O)c2ccc(S(=O)(=O)Nc3ccccc3OC)cc2)N2CCCC2)cc1 (configuration not stated)
48	-18.9	-7.6	3.0	CCOC(=O)C1(C)CCCCCN1C(=O)c1ccc(C(F)(F)F)nc1C (configuration not stated)
49	-3.2&-6.0	0.7	4.7	C[C@H](CO)N1C[C@H](C)[C@@H](CN(C)Cc2ccc3c(c2)OCCO3)OCc2cnnn2CCCC1=O
50	-5.7	-0.1	-1.1	CNc1cnc(-c2cccc(C(=O)N3CCOCC3)c2)cn1
51	0.8	0.0	2.6	O=C(COC(=O)CNC(=O)c1ccccc1)NC(=O)NC1CCCCC1
52	2.4	-0.6	-4.4	COc1ccc(OCCN2CCC(C(=O)NC(c3ccc(F)cc3)c3ccc4ccccc4n3)CC2)cc1 (configuration not stated)
53	-23.2	0.2	0.2	CN1CCN(C(=O)c2ccc(-c3cnn(C)c3)c3ccoc23)CC1
54	-5.6	0.3	0.8	CNC(=O)c1ccc(NC(=O)c2cc(S(=O)(=O)N(C)C)ccc2N2CCCC2)cc1
55	-12.2	0.4	-1.2	Cc1c(NS(=O)(=O)c2cccc(C(=O)OCC(=O)c3ccc(Cl)cc3)c2)c(=O)n(-c2ccccc2)n1C
56	-3.0	-0.4	2.3	Cc1cc(O)c2c(c1)C(=O)[C@@]13Oc4c5c(c(O)c6c(O)cc(C)cc46)C(=O)C[C@H](O)[C@H]5[C@@H]1[C@@H](O)CC(=O)C3=C2O
57	-6.0	-11.8	-27.6	Cc1sc2ncnc(N3CCN(S(=O)(=O)c4ccccc4)CC3)c2c1C
58	-7.6	2.6	-2.0	COc1ccccc1CNC(=O)c1cccc(S(=O)(=O)N2CCCC2)c1
59	1.8	7.1	1.2	Cn1nc(C(=O)Nc2cccc(S(=O)(=O)N3CCCC3)c2)c2ccccc2c1=O
60	6.1	0.3	0.2	CC(C)(C)NC(=O)C(c1ccc(-c2ccccc2)cc1)N(C[C@H]1CC[C@@H]([C@@H]2CC[C@H](CO)O2)O1)C(=O)c1ccccc1F (some centres not stated)

(list continues)
No.	Yeast UUG start	MT1-MMP act inh	MT1-MMP act inh RFP	structure
61	-5.8	-1.1	-6.0	O=C(NC(Cc1ccccc1)C(=O)N1CCN(c2ccc(F)cc2)CC1)c1ccccc1 (configuration not stated)
62	-1.3	-9.4	-10.5	O=c1c(O)c(-c2ccccc2)oc2cc(O)cc(O)c12
63	-17.2	3.6	-4.6	CC(=O)N1CCN(C(=O)c2ccc(Cl)c(S(=O)(=O)N3CCc4ccccc43)c2)CC1
64	-10.6	0.5	4.5	Cc1ccc(NC(=O)COC(=O)CN2C(=O)NC3(CCCC3)C2=O)cc1Cl
65	-12.2	1.8	-2.9	CC(C)Cn1nc(C(=O)N2CCc3ccccc32)c2ccccc2c1=O
66	0.3	-4.9	-1.8	Cc1c(NS(=O)(=O)c2cccc(C(=O)NCc3ccco3)c2)c(=O)n(-c2ccccc2)n1C
67	-22.8	2.5	-6.2	CCOC1=C2CN(S(=O)(=O)c3ccc(C)cc3)[C@H](c3cccc4ccccc34)C[C@H]2C(C#N)(C#N)C(C#N)(C#N)C1
68	-12.2	-1.8	1.5	NC(=O)c1ccsc1NC(=O)COC(=O)c1ccc(Cl)cc1
69	15.4	-1.3	-1.9	COc1ccc(NC(=O)Cn2c(C)csc2=O)c(OC)c1
70	3.7	6.3	2.8	COc1ccc(CCNC(=O)COC(=O)CSc2ccc(C(N)=O)cc2[N+](=O)[O-])cc1OC
71	-15.6	-2.9	4.8	Cc1ccc(-c2ccc(CN3C(CC(C)C)C(=O)N(Cc4cn(Cc5ccco5)nn4)CCS3(=O)=O)cc2)cc1 (configuration not stated)
72	-3.7	6.2	2.4	CCn1c(SCC(=O)Nc2ccc(NC(=O)c3ccco3)cc2)nnc1-c1cccs1
73	-12.1	0.6	2.9	COc1ccc(S(N)(=O)=O)cc1C(=O)OCC(=O)N1CC(=O)Nc2ccccc21
74	-2.2	4.1	5.2	C[C@H]1Cn2cnc(C(=O)NCC(=O)OC(C)(C)C)c2C(=O)N1

Source: PubChem BioAssay (several laboratories)
